# Screening results: PubChem BioAssay, Broad Institute
# Ecoli rRNA inh: inhibitors of bacterial rRNA selective over humanized ribosomes; E. coli WT GFP vs humanized-ribosome RFP mutants, fluorescence, 24 h; hits give low values; DMSO median 0, no signal -100; GFP signal change (wild-type ribosome), % (test concentration not listed); 350,000 compounds, 1.6% hits; AID 720706;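 active = significant combined selectivity score with lowered wild-type GFP, culture density cut under 30%, mutant RFP and density less affected; inactive = any of these conditions unmet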; also: one replicate is shown; some compounds called inactive have numbers as strong as hits
# Ecoli rRNA inh OD600: also measured in Ecoli rRNA inh; calls as there; OD600 change, %; measured here: OD600 growth;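 optical density of the mix in the first replicate; 0 = DMSO median and -100 = no signal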
# Ecoli rRNA inh RFP: recorded beside Ecoli rRNA inh, whose call it bears; RFP signal change, %; measured here: RFP humanized mutant strains;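 first replicate; 0 = DMSO median and -100 = no signal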
# * hit, by the source's call. A portion of the library, so the mix of outcomes need not match the whole.
no.	smiles	Ecoli rRNA inh	Ecoli rRNA inh OD600	Ecoli rRNA inh RFP
1	CS(=O)(=O)N1[C@@H]2CN(CC(F)(F)F)C[C@H]1C2c1ccc(Br)cc1 (some centres not stated)	-23.6	-38.0	-8.3
2	CO[C@H]1CN(C)C(=O)c2ccc(NC(=O)Nc3ccc(Cl)cc3)cc2OC[C@@H](C)NC[C@H]1C	-1.8	-2.2	-0.4
3	CC(C)[C@H]1C(=O)N[C@H](c2ccccc2)CC=CC[C@@H](C)Oc2ccccc2C(=O)N1C (mixture of isomers)	-2.5	1.5	-4.1
4	C[C@H]1CN([C@@H](C)CO)C(=O)c2cc(Br)cnc2O[C@@H]1CN(C)C(=O)C1CC1	10.4	22.5	-1.8
5	C[C@@H]1CN([C@H](C)CO)S(=O)(=O)c2ccc(C3=CCCC3)cc2O[C@H]1CN(C)C(=O)C1CC1	0.7	-16.9	1.1
6	Cc1ccc(-c2ccc3c(c2)O[C@H](CN(C)C(=O)C2CCCCC2)[C@H](C)CN([C@@H](C)CO)S3(=O)=O)cc1	2.0	2.5	0.3
7	C[C@@H]1CN(C)C(=O)c2ccccc2O[C@H]1CN(C)C	0.7	7.1	-3.0
8	COc1ccc(C[C@@H]2CCn3nncc3COC[C@H](c3ccccc3)NC2=O)cc1	-3.7	5.1	-0.8
9	CC(=O)N(C)C[C@@H]1Oc2ccccc2C(=O)N(C)C[C@H]1C	-1.1	-3.7	-1.2
10	CO[C@H]1CN(C)C(=O)c2cc(NC(C)=O)ccc2OC[C@@H](C)N(C(=O)c2cnccn2)C[C@@H]1C	5.4	0.4	-1.1
11	C[C@H]1COCn2nncc2CC[C@@H](Cc2ccccc2)C(=O)N1	1.2	9.8	-1.2
12	CCCN1C[C@H](C)[C@H](OC)CN(C)C(=O)c2cc(NC(=O)Nc3cccc(F)c3)ccc2OC[C@@H]1C	2.7	1.4	0.1
13	C[C@@H]1CN([C@@H](C)CO)C(=O)CCCn2cc(nn2)CO[C@@H]1CN(C)C(=O)Cc1ccccc1	-1.4	1.3	-0.3
14	Cc1occc1-c1nnc(SCC(=O)NCc2cccs2)n1CC1CCCO1 (configuration not stated)	9.1	5.6	-3.3
15	COC(=O)C[C@@H]1C=C[C@@H](N)[C@H](CO)O1	3.0	12.8	-1.1
16	CC(=O)Nc1ccc2c(c1)CC(=O)N(C)C[C@@H](C)[C@H](CN(C)C(C)=O)O2	1.0	6.5	-0.1
17	C[C@H](CO)N1C[C@H](C)[C@H](CN(C)S(=O)(=O)c2ccccc2F)OCc2cn(nn2)CCCC1=O	0.1	3.7	-0.3
18	C[C@H]1CN([C@@H](C)CO)C(=O)c2cccc(NC(=O)C3CCCCC3)c2O[C@@H]1CN(C)S(=O)(=O)c1cn(C)cn1	1.3	4.6	-0.8
19	C[C@H]1CC=CC[C@@H](c2cccc(Cl)c2)NC(=O)[C@H](Cc2ccccc2)N(C)C(=O)c2ccccc2O1 (mixture of isomers)	-1.1	0.0	-5.1
20	CCCC(=O)Nc1ccc2c(c1)OC[C@@H](C)N(CCc1ccccc1)C[C@@H](C)[C@H](OC)CN(C)C2=O	1.2	-3.5	2.8
21	C[C@H](CO)N1C[C@H](C)[C@@H](CN(C)Cc2ccc3c(c2)OCO3)Oc2ccc(NS(=O)(=O)c3ccccc3)cc2C1=O	-2.2	-1.2	-1.9
22	CCCNC(=O)NC[C@@H]1[C@H](c2ccc(C3=CCCC3)cc2)[C@H](CO)N1C(C)=O	2.5	0.1	3.0
23	CO[C@@H]1CN(C)C(=O)c2cc(NC(=O)c3cccc(Oc4ccccc4)c3)ccc2OC[C@@H](C)NC[C@H]1C	-5.2	0.9	14.7
24	CC(=O)N1[C@H](CNC(=O)CN(C)C)[C@H](c2ccc(C3=CCCC3)cc2)[C@@H]1CO	2.5	8.0	0.8
25	CCCNC(=O)Nc1ccc2c(c1)C(=O)N(C)C[C@@H](OC)[C@H](C)CN(CCC)[C@@H](C)CO2	0.3	3.7	-0.2
26	CO[C@H]1CN(C)C(=O)c2ccc(NC(=O)C3CCC3)cc2OC[C@@H](C)N(C(=O)CN(C)C)C[C@H]1C	3.5	8.3	-1.2
27	Cc1noc(C)c1S(=O)(=O)N(C)C[C@@H]1Oc2ccc(NS(=O)(=O)c3ccc(F)cc3)cc2C(=O)N([C@H](C)CO)C[C@@H]1C	-3.1	-2.9	4.0
28	C[C@H]1CN(C)C(=O)c2cc(NS(C)(=O)=O)ccc2O[C@H]1CN(C)C	0.6	-0.5	-0.2
29	O=C(Nc1ccc2c(c1)[C@@H]1C[C@H](CC(=O)N3CCCCC3)O[C@H](CO)[C@@H]1O2)NC1CCCCC1	-0.4	-7.6	0.3
30	CN(C[C@@H]1N[C@H](CO)[C@@H]1c1ccc(C2=CCCCC2)cc1)S(C)(=O)=O	2.5	0.6	0.9
31	C[C@@H]1CCCCO[C@H](CN(C)C(=O)C2CCCCC2)[C@@H](C)CN([C@@H](C)CO)C(=O)c2cc(N(C)C)ccc2O1	-4.4	2.4	1.7
32	C/C=C/c1cnc2c(c1)C(=O)N([C@H](C)CO)C[C@@H](C)[C@H](CN(C)C(=O)C1CC1)O2	0.1	-0.3	-3.6
33	Cc1ccc(S(=O)(=O)N(C)C[C@H]2Oc3ccc(NS(=O)(=O)c4cn(C)cn4)cc3CC(=O)N([C@@H](C)CO)C[C@@H]2C)cc1	4.0	3.1	-2.4
34	C[C@@H]1CN([C@@H](C)CO)C(=O)c2cc(Br)cnc2O[C@H]1CN(C)C(=O)C1CCC1	8.9	5.5	-2.2
35	CNC[C@H]1Oc2ccc(NC(=O)Nc3ccc4c(c3)OCO4)cc2C(=O)N([C@H](C)CO)C[C@H]1C	-1.4	-5.0	0.9
36	CO[C@H]1CN(C)C(=O)c2ccc(NC(=O)c3nc4ccccc4s3)cc2OC[C@@H](C)N(Cc2cccnc2)C[C@H]1C	-14.2	-27.9	4.1
37	C[C@@H]1CN([C@@H](C)CO)C(=O)CCCn2cc(nn2)CO[C@H]1CN(C)Cc1ccccc1	3.1	-2.2	-1.2
38	CCC(=O)N[C@@H]1C=C[C@@H](CC(=O)NCC2CC2)O[C@H]1CO	3.1	14.1	-4.9
39	C[C@@H]1CN([C@H](C)CO)C(=O)c2cc(NS(=O)(=O)c3ccccc3)ccc2O[C@H]1CN(C)C(=O)Nc1ccc(C(F)(F)F)cc1	-10.4	-18.5	-0.6
40	CO[C@H]1CN(C)C(=O)c2cc(NC(=O)NC3CCCC3)ccc2OC[C@H](C)NC[C@@H]1C	3.4	1.4	-2.2
41	O=C(NC1CCCC1)[C@H]1[C@H](CO)[C@H]2Cn3c(ccc(-c4cccc(F)c4)c3=O)[C@@H]1N2	1.1	-1.7	0.8
42	C[C@@H]1CN([C@H](C)CO)S(=O)(=O)c2ccc(C#CC3CCCC3)cc2O[C@H]1CN(C)Cc1cncnc1	-13.6	-24.5	16.9
43	COc1ccc2c3c(n(C)c2c1)[C@H](CO)N(C(=O)c1ccc(F)cc1)CC31CCN(CC2CC2)CC1	1.9	1.1	1.0
44	CC(C)NC(=O)Nc1ccc2c(c1)C(=O)N([C@@H](C)CO)C[C@@H](C)[C@H](CN(C)C(=O)CCCN(C)C)OCCCC[C@@H](C)O2	2.2	5.4	-0.2
45	CC(C)[C@@H]1C(=O)N[C@@H](c2cccc(Cl)c2)CC=CC[C@H](C)Oc2ccccc2C(=O)N1C (mixture of isomers)	-12.4	-11.1	0.3
46	CO[C@H]1CN(C)C(=O)c2ccc(NC(=O)NC(C)C)cc2OC[C@@H](C)N(Cc2cncnc2)C[C@@H]1C	0.0	1.8	1.1
47	CCCNC(=O)Nc1ccc2c(c1)C(=O)N(C)C[C@H](OC)[C@@H](C)CN(C(=O)CC)[C@H](C)CO2	0.3	1.4	-0.4
48	C[C@@H]1CC=CC[C@@H](c2ccc(F)cc2)NC(=O)[C@H](C)N(C)C(=O)c2ccccc2O1 (mixture of isomers)	-2.4	-2.5	0.7
49	CO[C@H]1CN(C)C(=O)c2ccc(NC(=O)c3cnccn3)cc2OC[C@@H](C)NC[C@H]1C	4.3	2.0	0.4
50	CN(C)C(=O)c1cccc(-c2ccc3c(c2)[C@H]2[C@H](CCN2C(=O)c2ccc4c(c2)OCO4)[C@@H](CO)N3)c1	-6.6	-1.3	-4.8

# Quoted at random: five entries already listed, in no set order.
no.	smiles	Ecoli rRNA inh	Ecoli rRNA inh OD600	Ecoli rRNA inh RFP
49	CO[C@H]1CN(C)C(=O)c2ccc(NC(=O)c3cnccn3)cc2OC[C@@H](C)NC[C@H]1C	4.3	2.0	0.4
11	C[C@H]1COCn2nncc2CC[C@@H](Cc2ccccc2)C(=O)N1	1.2	9.8	-1.2
43	COc1ccc2c3c(n(C)c2c1)[C@H](CO)N(C(=O)c1ccc(F)cc1)CC31CCN(CC2CC2)CC1	1.9	1.1	1.0
23	CO[C@@H]1CN(C)C(=O)c2cc(NC(=O)c3cccc(Oc4ccccc4)c3)ccc2OC[C@@H](C)NC[C@H]1C	-5.2	0.9	14.7
17	C[C@H](CO)N1C[C@H](C)[C@H](CN(C)S(=O)(=O)c2ccccc2F)OCc2cn(nn2)CCCC1=O	0.1	3.7	-0.3

# Additional entries
no.	smiles	Ecoli rRNA inh	Ecoli rRNA inh OD600	Ecoli rRNA inh RFP
51	CCCC(=O)Nc1ccc2c(c1)OC[C@@H](C)N(CCc1ccccc1)C[C@H](C)[C@H](OC)CN(C)C2=O	-0.1	-1.6	-0.1
52	CCCNC(=O)Nc1ccc2c(c1)C(=O)N(C)C[C@H](OC)[C@H](C)CN(C(=O)CC)[C@@H](C)CO2	2.4	2.3	-1.7
53	CC(=O)N1[C@H](CO)[C@H](c2ccc(-c3ccccc3)cc2)[C@@H]1CNC(=O)C1CC1	1.5	11.5	-0.4
54	CC(C)NC(=O)Nc1cccc2c1O[C@H](CN(C)C(=O)NC(C)C)[C@@H](C)CN(C)C2=O	0.3	1.5	-2.7
55	CNC[C@H]1Oc2ncc(Br)cc2C(=O)N([C@@H](C)CO)C[C@@H]1C	2.7	4.2	-0.1
56	COc1ccc(S(=O)(=O)Nc2ccc3c(c2)C(=O)N([C@H](C)CO)C[C@H](C)[C@H](CN(C)C(=O)NC(C)C)O3)cc1	0.5	8.9	-1.0
57	C[C@@H]1CCCCO[C@@H](CN(C)C(=O)c2ccccc2)[C@H](C)CN([C@H](C)CO)C(=O)c2cc(NC(=O)CCCN(C)C)ccc2O1	4.8	4.2	-0.4
58	CC(=O)Nc1ccc2c(c1)CC(=O)N(C)C[C@@H](C)[C@@H](CN(C)S(C)(=O)=O)O2	-0.6	12.2	-0.5
59	C[C@@H]1CN(C)C(=O)Cc2cc(N(C)C)ccc2O[C@H]1CN(C)C	2.6	3.4	-2.4
60	C[C@@H]1CN([C@H](C)CO)C(=O)Cc2cc(NS(=O)(=O)c3cccs3)ccc2O[C@@H]1CN(C)S(=O)(=O)c1cccs1	-2.3	-3.0	0.8
61	CO[C@@H]1CN(C)C(=O)c2ccc(NC(=O)C3CCC3)cc2OC[C@@H](C)N(C(=O)CN(C)C)C[C@@H]1C	-0.7	-0.3	-2.4
62	CC(C)NC(=O)Nc1cccc2c1O[C@@H](CN(C)C)[C@H](C)CN(C)C2=O	4.9	8.1	-2.2
63	N#C[C@@H]1[C@@H](c2ccc(C#Cc3cccnc3)cc2)[C@@H](CO)N1C(=O)NC1CCCC1	-5.1	-8.3	-1.6
64	C[C@H](CO)N1C[C@H](C)[C@@H](CN(C)C(=O)C2CCCCC2)OCCCC[C@H](C)Oc2ccc(N(C)C)cc2C1=O	-2.4	-2.5	-0.2
65	C[C@H](CO)N1C[C@H](C)[C@@H](CN(C)Cc2cccc3c2OCCCO3)OCc2cn(nn2)CCCC1=O	1.5	0.0	-0.1
66	CO[C@@H]1CN(C)C(=O)c2ccc(NS(C)(=O)=O)cc2OC[C@H](C)N(C(=O)c2ccc3c(c2)OCO3)C[C@H]1C	-0.9	0.2	-0.6
67	Cc1cc(C(=O)Nc2cccc3c2O[C@H](CN(C)Cc2ccc(Oc4ccccc4)cc2)[C@@H](C)CN([C@@H](C)CO)C3=O)n(C)n1	-3.2	2.6	0.7
68	CO[C@H]1CN(C)C(=O)c2ccc(NC(=O)CC(F)(F)F)cc2OC[C@@H](C)N(CC2CC2)C[C@@H]1C	2.8	2.4	1.0
69	CO[C@@H]1CN(C)C(=O)c2ccc(NC(C)=O)cc2OC[C@@H](C)N(C(=O)CN(C)C)C[C@@H]1C	-0.8	-0.5	-3.2
70	CCCNC(=O)N1CC(=O)N2[C@H](C1)[C@@H](c1ccc(-c3ccccc3)cc1)[C@@H]2CO	1.1	4.6	2.9
71	C/C=C/c1cnc2c(c1)C(=O)N([C@@H](C)CO)C[C@H](C)[C@H](CN(C)C(=O)C1CC1)O2	7.4	2.0	-2.5
72	CC(C)NC(=O)Nc1ccc2c(c1)C(=O)N([C@H](C)CO)C[C@H](C)[C@H](CN(C)C(=O)C1CCCCC1)OCCCC[C@H](C)O2	-4.8	-6.6	0.2
73	Cc1ccc(S(=O)(=O)Nc2ccc3c(c2)CC(=O)N([C@@H](C)CO)C[C@@H](C)[C@H](CN(C)Cc2ccc(C(F)(F)F)cc2)O3)cc1	-0.3	-6.4	5.5
74	CC(C)CC#Cc1ccc2c(c1)O[C@@H](CN(C)Cc1ccccc1)[C@H](C)CN([C@H](C)CO)S2(=O)=O	2.1	-4.0	0.1
75	C[C@@H]1CCCCO[C@H](CN(C)S(=O)(=O)c2ccccc2)[C@H](C)CN([C@@H](C)CO)C(=O)c2cc(N(C)C)ccc2O1	-5.7	-5.4	0.5
76	COc1ccc(-c2cnc3c(c2)C(=O)N([C@H](C)CO)C[C@H](C)[C@H](CN(C)S(=O)(=O)c2cccc(OC)c2)O3)cc1	1.2	0.4	4.2
77	COc1ccc2c3c(n(C)c2c1)[C@H](CO)N(C(=O)C1CCOCC1)CC31CCN(C(=O)c2ccncc2)CC1	-1.6	4.1	-0.2
